Screening results deposited in PubChem BioAssay by Broad Institute.
Vaccinia stage – Vaccinia orthopox stage-specific inhibition | activity change (mCherry), % (concentration not given with the values) | 0.01% of 89,000 active | Vaccinia-infected cells, mCherry/Venus stage reporter fluorescence; active compounds read low; some inactives read as strong as hits | AID 1053133;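 active = mCherry past -33% and 40 or more points under the early reporter, replicates agreeing; inconclusive = past -33% without that gap or agreement; tested in A549 cells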;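 note: scaled between vehicle wells and reference inhibitor wells; 23 nL library stock went into each well; one replicate is shown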
Vaccinia stage Venus – recorded beside Vaccinia stage, whose call it bears; activity change (Venus), %; measured here: Venus reporter, other viral stage;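 negative = less Venus signal; first of two replicates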
Numbers without * were called inactive; ? = inconclusive; · = no result given.

SMILES	Vaccinia stage	Vaccinia stage Venus
C[C@@H]1CN([C@@H](C)CO)C(=O)c2cc(C3=CCCC3)cnc2O[C@H]1CN(C)C(=O)c1ccncc1	13	7
Cc1ccc(-c2ccc3c(c2)O[C@@H](CN(C)CC2CC2)[C@@H](C)CN([C@H](C)CO)S3(=O)=O)cc1	-18	-13
Cc1noc(C)c1S(=O)(=O)Nc1ccc2c(c1)C(=O)N([C@H](C)CO)C[C@@H](C)[C@@H](CN(C)Cc1ccc(C(=O)O)cc1)O2	3	7
CCCNC(=O)C[C@H]1C[C@@H]2c3cc(NC(=O)CC4CC4)ccc3O[C@@H]2[C@H](CO)O1	4	0
C[C@@H]1CN([C@H](C)CO)C(=O)c2cccc(NC(=O)c3ccc(-c4nccs4)cc3)c2O[C@@H]1CN(C)C	25	11
CC(=O)N(C)C[C@@H]1OCc2ccccc2-c2c(n(C)c3ccccc23)C(=O)N([C@H](C)CO)C[C@@H]1C	4	-6
Cc1ccccc1S(=O)(=O)N1[C@@H]2Cn3c(ccc(-c4cccnc4)c3=O)[C@H]1[C@@H](C(=O)O)[C@@H]2CO	3	5
C[C@H]1CN([C@@H](C)CO)C(=O)Cc2cc(NC(=O)Nc3ccc(F)cc3)ccc2O[C@H]1CN(C)Cc1ccccc1	?	·
C[C@H]1CN([C@@H](C)CO)C(=O)c2cccc(NC(=O)Nc3ccc(F)cc3)c2O[C@@H]1CN(C)Cc1ccncc1	7	2
C[C@H]1CN([C@@H](C)CO)C(=O)Cc2cc(NC(=O)CCCCCC(=O)Nc3ccccc3N)ccc2O[C@H]1CN(C)S(=O)(=O)c1ccc(F)cc1	12	5
CO[C@@H]1CN(C)C(=O)c2cc(NC(=O)C3CC3)ccc2OC[C@H](C)N(C(=O)C2CCOCC2)C[C@@H]1C	-4	0
CCCC(=O)Nc1ccc2c(c1)OC[C@H](C)N(C(=O)CC)C[C@H](C)[C@@H](OC)CN(C)C2=O	12	6
C[C@@H]1CCCCO[C@@H](CN(C)Cc2ccc(C(=O)O)cc2)[C@@H](C)CN([C@H](C)CO)C(=O)c2cc(NS(=O)(=O)c3ccc(Cl)cc3)ccc2O1	19	9
Cc1cc(C(=O)Nc2cccc3c2O[C@H](CN(C)C(=O)Nc2ccc(C(F)(F)F)cc2)[C@@H](C)CN([C@@H](C)CO)C3=O)n(C)n1	13	14
CO[C@H]1CC[C@H]2CCN(C)C(=O)[C@H](C)CN(C)C(=O)c3cc(C#N)ccc3OC[C@H]1O2	13	10
C[C@@H]1CN([C@@H](C)CO)C(=O)c2cc(NC(=O)Nc3ccc(C(F)(F)F)cc3)ccc2O[C@@H]1CN(C)Cc1ccccc1	?	·
CO[C@@H](CN(C)C(=O)c1ccc2c(c1)OCO2)[C@H](C)CN([C@@H](C)CO)S(=O)(=O)c1ccc(C)cc1	-1	0
COc1ccccc1C#Cc1cnc2c(c1)C(=O)N([C@H](C)CO)C[C@@H](C)[C@H](CN(C)C(=O)CN(C)C)O2	-11	-4
C[C@@H]1CCCCO[C@H](CN(C)C(=O)CCC(F)(F)F)[C@H](C)CN([C@H](C)CO)C(=O)c2cc(NC(=O)C3CCCCC3)ccc2O1	-24	-20
C[C@@H]1CN([C@H](C)CO)C(=O)c2cccc(NC(=O)Nc3cccc4ccccc34)c2O[C@H]1CN(C)S(=O)(=O)c1ccccc1	-1	0
C[C@@H]1CN([C@H](C)CO)C(=O)c2cc(-c3ccccc3)cnc2O[C@@H]1CN(C)C(=O)c1ccccc1F	10	-1
COc1ccc(-c2ccc([C@@H]3[C@H]4CN(C(=O)C5CCC5)CC(=O)N4[C@H]3CO)cc2)cc1	-24	-17
O=C(Cc1ccncc1)NCC[C@@H]1CC[C@H](NC(=O)Nc2ccc(Cl)cc2)[C@H](CO)O1	15	11
CN1[C@H](C(=O)NC2Cc3ccccc3C2)[C@@H](CO)[C@@H]2Cn3c(ccc(C4=CCCC4)c3=O)[C@@H]21	0	16
CCCC(=O)Nc1ccc2c(c1)OC[C@H](C)N(C(=O)c1ccncc1)C[C@@H](C)[C@H](OC)CN(C)C2=O	15	-2
C[C@H](CO)N1C[C@H](C)[C@@H](CN(C)C(=O)c2ccccc2)Oc2ncc(C3=CCCC3)cc2C1=O	9	5
CC(C)C#Cc1ccc2c(c1)O[C@@H](CN(C)C(=O)NC(C)C)[C@H](C)CN([C@H](C)CO)S2(=O)=O	-2	-6
COc1cccc(C#Cc2cnc3c(c2)C(=O)N([C@H](C)CO)C[C@H](C)[C@@H](CN(C)C(C)=O)O3)c1	-2	7
O=C(C[C@@H]1C=C[C@H](NC(=O)C2CC2)[C@@H](CO)O1)NCc1ccccc1Cl	5	4
CC(=O)Nc1ccc2c(c1)C(=O)N(C)[C@H]1CC[C@H](CC(=O)NCc3ccc(F)cc3)O[C@H]1CO2	7	7
COc1ccc(CN(C)C[C@@H]2OCCCC[C@H](C)Oc3ccc(NC(=O)Nc4ccc(F)cc4)cc3C(=O)N([C@@H](C)CO)C[C@H]2C)cc1	?	·
C[C@@H]1CN([C@@H](C)CO)C(=O)Cc2cc(NC(=O)CCCCCC(=O)Nc3ccccc3N)ccc2O[C@H]1CN(C)Cc1ccc(C(F)(F)F)cc1	?	·
C[C@H](CO)N1C[C@H](C)[C@@H](CN(C)C(=O)Nc2ccc(F)cc2)Oc2c(NC(=O)c3ccc(-c4nccs4)cc3)cccc2C1=O	9	14
C[C@H](CO)N1C[C@H](C)[C@@H](CN(C)C(=O)Nc2ccc(F)cc2)Oc2c(NS(=O)(=O)c3cccs3)cccc2C1=O	13	13
CO[C@@H]1CN(C)C(=O)c2cc(NC(=O)Nc3ccccc3F)ccc2OC[C@@H](C)N(C(=O)c2cnccn2)C[C@H]1C	0	1
CN(C)C(=O)c1ccc(-c2ccc([C@@H]3[C@H](CO)N4CCCCN(C(=O)C5CCCC5)C[C@@H]34)cc2)cc1	6	1
COc1ccc(-c2cnc3c(c2)C(=O)N([C@H](C)CO)C[C@@H](C)[C@@H](CN(C)C)O3)cc1	-2	0
C[C@H](CO)N1C[C@H](C)[C@@H](CN(C)C(=O)NC2CCCC2)Oc2ncc(-c3cccnc3)cc2C1=O	22	6
CN(C)CC(=O)Nc1ccc2c(c1)[C@H]1C[C@H](CC(=O)NCc3cc(F)ccc3F)O[C@@H](CO)[C@H]1O2	-3	-1
C[C@@H]1CN([C@H](C)CO)C(=O)c2cc(N(C)C)ccc2O[C@@H](C)CCCCO[C@@H]1CN(C)CC1CCCCC1	-6	-3
CC(C)C#Cc1cnc2c(c1)C(=O)N([C@H](C)CO)C[C@H](C)[C@H](CN(C)C(=O)c1ccccn1)O2	24	10
C[C@@H]1CN([C@H](C)CO)C(=O)c2cc(NC(=O)Nc3ccc(C(F)(F)F)cc3)ccc2O[C@@H](C)CCCCO[C@@H]1CN(C)C(=O)Cc1ccccc1	-8	-2
CCCNC(=O)N1[C@H](CO)[C@H](c2ccccc2-c2ccc(OC)cc2)[C@@H]1C#N	9	8
CCCC#Cc1cnc2c(c1)C(=O)N([C@H](C)CO)C[C@@H](C)[C@H](CN(C)C(=O)Nc1cccc(F)c1)O2	-1	5
Cc1noc(C)c1S(=O)(=O)N(C)C[C@@H]1OCc2cn(nn2)CCCC(=O)N([C@H](C)CO)C[C@H]1C	6	2
C[C@@H](NC(=O)C[C@@H]1CC[C@H](NC(=O)C2CCC2)[C@@H](CO)O1)c1ccccc1	0	1
CC(C)CC#Cc1ccc2c(c1)O[C@@H](CN(C)S(C)(=O)=O)[C@@H](C)CN([C@H](C)CO)S2(=O)=O	-12	-11
C[C@@H]1CCCCO[C@H](CN(C)C(=O)Nc2ccc3c(c2)OCO3)[C@H](C)CN([C@@H](C)CO)C(=O)c2cc(NC(=O)CCC(F)(F)F)ccc2O1	-6	5
C[C@H]1CN([C@@H](C)CO)C(=O)c2cccc(NC(=O)NC3CCCCC3)c2O[C@@H]1CN(C)Cc1ccc(Cl)c(Cl)c1	?	·
Cc1noc(C)c1NC(=O)N(C)C[C@@H]1Oc2ccc(NC(=O)C3CC3)cc2C(=O)N([C@H](C)CO)C[C@@H]1C	-7	4
Later entries:
SMILES	Vaccinia stage	Vaccinia stage Venus
CO[C@H]1CC[C@H]2CCN(C)C(=O)[C@H](C)N(C)C(=O)c3cc(C#N)ccc3OC[C@H]1O2	14	12
C[C@@H]1CN([C@H](C)CO)C(=O)c2cccc(NC(=O)C3CCCCC3)c2O[C@H]1CN(C)S(=O)(=O)c1cccs1	-3	-1
C[C@H](CO)N1C[C@H](C)[C@H](CN(C)C(=O)C2CCC2)Oc2cc(C3=CCCCC3)ccc2S1(=O)=O	?	·
CN1CCN(C(=O)C[C@H]2CC[C@@H]3[C@H](COC[C@@H](O)CN3C(=O)C3CCOCC3)O2)CC1	13	14
O=S(=O)(c1ccc(F)cc1)N1CCCCN2[C@H](C1)[C@H](c1ccc(-c3ccccc3)cc1)[C@@H]2CO	?	·
N#C[C@H]1[C@H](c2ccccc2C2=CCCCC2)[C@@H](CO)N1C(=O)NC1CCCC1	2	-3
CO[C@@H]1CN(C)C(=O)c2cc(NC(=O)Nc3ccc4c(c3)OCO4)ccc2OC[C@@H](C)NC[C@@H]1C	22	9
CCCN(C)C[C@@H]1Oc2ncc(C#Cc3ccccc3OC)cc2C(=O)N([C@H](C)CO)C[C@@H]1C	?	·
C[C@H]1CN([C@@H](C)CO)S(=O)(=O)c2ccc(Br)cc2O[C@H]1CN(C)Cc1ccncc1	-4	-5
C[C@@H]1CN([C@H](C)CO)C(=O)c2cc(NC(=O)Cc3ccccc3)ccc2O[C@@H](C)CCCCO[C@@H]1CN(C)S(=O)(=O)c1ccc(Cl)cc1	-1	7
O=C(C[C@@H]1C=C[C@H](NC(=O)NC2CCCC2)[C@@H](CO)O1)NCc1ccc(F)cc1	-11	-6
C[C@H](CO)N1C[C@H](C)[C@@H](CN(C)C(=O)Nc2cccc3ccccc23)OCCCC[C@H](C)Oc2ccc(NC(=O)Nc3ccc(F)cc3)cc2C1=O	24	3
Cc1noc(C)c1S(=O)(=O)N(C)C[C@H]1Oc2ccc(NC(=O)CCCCCC(=O)Nc3ccccc3N)cc2CC(=O)N([C@@H](C)CO)C[C@@H]1C	20	14
O=C(C[C@@H]1C=C[C@@H](NC(=O)C2CCOCC2)[C@@H](CO)O1)Nc1ccccc1	14	11
C[C@H](CO)N1C[C@H](C)[C@@H](CN(C)C(=O)Nc2ccccc2)Oc2c(NC(=O)C3CCOCC3)cccc2C1=O	2	4
C[C@H](CO)N1C[C@H](C)[C@H](CN(C)Cc2ccc3c(c2)OCO3)OCCCC[C@H](C)Oc2ccc(NC(=O)c3ccccc3)cc2C1=O	?	·
C[C@H]1CN([C@@H](C)CO)C(=O)c2cccc(NS(=O)(=O)c3cccs3)c2O[C@@H]1CN(C)S(=O)(=O)c1cn(C)cn1	17	2
C[C@@H]1CN([C@@H](C)CO)C(=O)c2cc(NS(=O)(=O)c3ccc(Cl)cc3)ccc2O[C@@H](C)CCCCO[C@H]1CN(C)C(=O)c1ccncc1	19	10
Cc1ccc(S(=O)(=O)N(C)C[C@@H]2Oc3cc(C#Cc4ccncc4)ccc3S(=O)(=O)N([C@@H](C)CO)C[C@@H]2C)cc1	?	·
CN(C)CC(=O)N[C@H]1C=C[C@H](CC(=O)NCc2ccc(Cl)cc2)O[C@@H]1CO	15	10

Record cards, from the list above.
`C[C@H](CO)N1C[C@H](C)[C@H](CN(C)Cc2ccc3c(c2)OCO3)OCCCC[C@H](C)Oc2ccc(NC(=O)c3ccccc3)cc2C1=O` as listed: Vaccinia stage = ?; Vaccinia stage Venus = ·
`Cc1ccc(S(=O)(=O)N(C)C[C@@H]2Oc3cc(C#Cc4ccncc4)ccc3S(=O)(=O)N([C@@H](C)CO)C[C@@H]2C)cc1` as listed: Vaccinia stage = ?; Vaccinia stage Venus = ·
`C[C@H](CO)N1C[C@H](C)[C@@H](CN(C)C(=O)Nc2cccc3ccccc23)OCCCC[C@H](C)Oc2ccc(NC(=O)Nc3ccc(F)cc3)cc2C1=O` as listed: Vaccinia stage = 24; Vaccinia stage Venus = 3

Other records follow.
SMILES	Vaccinia stage	Vaccinia stage Venus
C[C@@H]1CN([C@H](C)CO)C(=O)c2cccc(NC(=O)c3nc4ccccc4s3)c2O[C@H]1CN(C)S(=O)(=O)c1cn(C)cn1	23	14
O=C(C[C@H]1CC[C@@H]2[C@H](COC[C@H](O)CN2C(=O)Nc2ccc(F)cc2)O1)NC1CCC1	8	0
C[C@@H]1CN([C@H](C)CO)C(=O)Cc2cc(NC(=O)Nc3cccc4ccccc34)ccc2O[C@H]1CN(C)S(=O)(=O)c1ccccc1	12	5
Cc1ccc(S(=O)(=O)N[C@@H]2C=C[C@H](CC(=O)N3CCc4ccccc4C3)O[C@H]2CO)cc1	-24	-18
CC(C)[C@@H](C)NC(=O)N(C)C[C@H]1OCc2ccccc2-c2c(n(C)c3ccccc23)C(=O)N([C@@H](C)CO)C[C@H]1C	-12	-6
C[C@H]1CN([C@@H](C)CO)C(=O)c2cc(NC(=O)NC3CCCCC3)ccc2O[C@@H]1CN(C)Cc1ccccc1	0	2
C[C@@H]1CN([C@H](C)CO)C(=O)c2cc(-c3cccc(F)c3)cnc2O[C@@H]1CN(C)Cc1ccncc1	18	20

Already shown: an excerpt of the list.
SMILES	Vaccinia stage	Vaccinia stage Venus
C[C@@H]1CN([C@H](C)CO)C(=O)Cc2cc(NC(=O)Nc3cccc4ccccc34)ccc2O[C@H]1CN(C)S(=O)(=O)c1ccccc1	12	5
Cc1ccc(S(=O)(=O)N[C@@H]2C=C[C@H](CC(=O)N3CCc4ccccc4C3)O[C@H]2CO)cc1	-24	-18
CC(C)[C@@H](C)NC(=O)N(C)C[C@H]1OCc2ccccc2-c2c(n(C)c3ccccc23)C(=O)N([C@@H](C)CO)C[C@H]1C	-12	-6

Some of the compounds tested; the hit share may differ from the screen's.
